Source: PubChem BioAssay
MenB inh – blocks the Mycobacterium tuberculosis MenB enzyme; P9WNP5; MenB enzyme assay, absorbance read-out; some hits fall short of the stated cut; inhibition, %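 (about 12 µg/mL by stock and volumes)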; 100,000 compounds, 0.43% hits;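 active = mean of two replicates above 30%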;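 also: 0% = no compound and 100% = wells with inactive enzyme; the first replicate is given; strong numbers were not always called active; inactives centre near -10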
Target sequence (P9WNP5 whole entry, looked up): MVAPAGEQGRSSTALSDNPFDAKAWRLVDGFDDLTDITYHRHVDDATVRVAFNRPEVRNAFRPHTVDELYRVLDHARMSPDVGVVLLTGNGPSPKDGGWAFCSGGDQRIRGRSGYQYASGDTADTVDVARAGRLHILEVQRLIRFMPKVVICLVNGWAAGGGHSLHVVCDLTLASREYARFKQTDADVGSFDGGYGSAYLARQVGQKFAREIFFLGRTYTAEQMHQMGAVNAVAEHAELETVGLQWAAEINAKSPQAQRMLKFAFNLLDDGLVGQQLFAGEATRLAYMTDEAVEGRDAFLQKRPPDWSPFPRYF
PV pol inh – inhibitors of poliovirus RNA polymerase binding and polymerization; P03300; poliovirus polymerase elongation, fluorescence polarization; active compounds read low; % elongation, % (compound at 16.7 µg/mL); 150,000 compounds, 0.66% hits; AID 588519; in the data active = % elongation below about 90%; also: some results filed as inactive read as strong as hits
MbtI inh – MbtI salicylate synthase inhibition. P9WFX0. purified MbtI enzyme, fluorescence intensity read-out. 100,000 compounds, 0.89% hits. inhibition, %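 (about 17 µg/mL by stock and volumes)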;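 active = above 50% in both replicates, above 80% if mildly self-fluorescent; inactive = the rest, strongly fluorescent compounds included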;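 also: 0% = mean of negative and 100% = mean of positive controls; one replicate is shown; some compounds called inactive have numbers as strong as hits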
Target sequence (P9WFX0 whole entry, looked up): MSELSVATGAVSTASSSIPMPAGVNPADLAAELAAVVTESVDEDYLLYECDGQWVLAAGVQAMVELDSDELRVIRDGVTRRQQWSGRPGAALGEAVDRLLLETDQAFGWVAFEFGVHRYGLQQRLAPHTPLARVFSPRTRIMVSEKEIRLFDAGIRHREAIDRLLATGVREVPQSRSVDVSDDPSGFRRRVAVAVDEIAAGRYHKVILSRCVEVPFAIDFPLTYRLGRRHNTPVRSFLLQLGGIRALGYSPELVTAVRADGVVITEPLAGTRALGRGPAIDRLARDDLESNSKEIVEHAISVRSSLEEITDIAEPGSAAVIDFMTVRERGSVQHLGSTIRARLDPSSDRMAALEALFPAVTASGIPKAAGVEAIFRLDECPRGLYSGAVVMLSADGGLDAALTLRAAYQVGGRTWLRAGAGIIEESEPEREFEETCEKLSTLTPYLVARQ
PV pol inh intensity – further read-out of PV pol inh, marked with its call; % elongation; measured here: total intensity read-out; formula for this scale not given here;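 total fluorescence in place of polarization; lower means less elongation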
Numbers without * were called inactive; . = not tested or not shown; & = joins results of further samples.

1: CC(C)(O)C#Cc1ccc(C(=O)NCc2cccs2)s1
2: O=C(O)C(c1cccs1)c1cccs1
3: Cc1ccc(/C=C2\CCCc3ccccc3C2=O)o1
4: N#CCCn1ccc2ccccc21
5: CC(C)COP(C)(=O)C(N)=O (stereo unspecified)
6: OCc1ccnc(Cl)c1
7: O=S1(=O)N=C(N(Cc2ccco2)c2ccc(O)cc2)c2ccccc21
8: N#CC(C#N)=Cc1ccc(/C=C(\C#N)S(=O)(=O)c2ccccn2)cc1

assay / compound,1,2,3,4,5,6,7,8
MenB inh,-1,-6,-10,-14,6,10,-51,-11
PV pol inh,106,103,103,101,99,101,106,100
PV pol inh intensity,95,101,97,89,102,104,100,102
MbtI inh,.,-4,21,9,5,0,-6,12

9: Cc1ccc(NC(=O)CSc2ncnc3ccccc23)cc1C
10: Cn1c(C(=O)O)c(CC(=O)O)c2ccccc21
11: CN(C)c1ccc(/C=N/NC(=O)CNc2ccc(Br)cc2)cc1
12: Fc1ccc(C=Nc2ccc(Nc3ccccc3)cc2)cc1F
13: OC(COc1ccc(F)cc1)(c1ccc(Cl)cc1)c1ccc(Cl)cc1
14: Cc1ccc(NC(=O)CCn2nnc(-c3ccc(OCc4ccccc4F)cc3)n2)cc1C
15: Cc1ccccc1NC(=O)C1CCN(C(=O)c2cc3sccc3n2Cc2ccc(F)cc2)CC1
16: Cc1cccc(NC(=O)C(NS(=O)(=O)c2cccs2)C(C)C)c1C (stereo unspecified)

assay / compound,9,10,11,12,13,14,15,16
MenB inh,.,9,-16,.,-4,-32,-20,-11
PV pol inh,98,100,103,102,101,102,103,104
PV pol inh intensity,96,103,102,103,104,109,105,103
MbtI inh,-4,21,13,-2,-5,-9,-5,-1

17: O=C(NCc1ccccc1)c1cc[n+]([O-])cc1
18: N=c1c2c(F)cccc2ncn1NC(=O)c1ccncc1
19: Cc1ccc(S(=O)(=O)c2[nH]nc3ccc(Cl)cc23)cc1
20: C[C@@H]1C[C@@H]([C@H](O)CC2CC(=O)NC(=O)C2)C(=O)[C@@H](C)C1
21: Cn1c(O)c(C=Nc2ccccc2)c(=O)n(C)c1=O
22: CCOC(=O)c1c(C)[nH]c(NC(=O)Nc2nnc(CC)s2)c1C
23: COc1ccccc1/C=C/C(=O)N1CCC(C(N)=O)CC1
24: Cc1ccc2ccccc2c1COC(=O)c1nonc1N

assay / compound,17,18,19,20,21,22,23,24
MenB inh,3,14,-19,-4&-44,3,1,-27,-24
PV pol inh,102,100,106,101&100,99,101,104,101
PV pol inh intensity,101,104,109,99&99,101,105,102,102
MbtI inh,8,-5,.,9&-9,6,-7,12,-20

25: COc1ccccc1C1C(C(=O)Nc2ccccc2F)=C(C)NC2=C1C(=O)CCC2 (stereo unspecified)
26: Cc1oc2ncn(C)c(=O)c2c1C(=O)OCc1ccc(C#N)cc1
27: Cc1cc(NC(=O)c2cccnc2)ccc1NC(=O)c1ccco1
28: O=C(Cn1c(=O)oc2cc(S(=O)(=O)NCc3ccccc3)ccc21)Nc1ccc(F)cc1
29: O=C(CCCC1CCCCC1)Nc1ccncc1
30: CCc1ccc(OCC(=O)Nc2ccc3c(c2)COC3=O)cc1
31: CCOC(=O)N1CCN(C(=O)C2COc3ccccc3O2)CC1 (stereo unspecified)
32: CCCn1c(C)cc(C(=O)CSc2nc(O)cc(=O)n2C2CCCC2)c1C

assay / compound,25,26,27,28,29,30,31,32
MenB inh,-19,-13,-44,-6,-14,-21,-9,-62
PV pol inh,100,110,103,101,103,108,98,114
PV pol inh intensity,96,112,99,99,104,105,96,119
MbtI inh,-10,2,-4,19,0,.,3,8

Some of these compounds in order of number of heavy atoms, ascending:
17: O=C(NCc1ccccc1)c1cc[n+]([O-])cc1
29: O=C(CCCC1CCCCC1)Nc1ccncc1
21: Cn1c(O)c(C=Nc2ccccc2)c(=O)n(C)c1=O
19: Cc1ccc(S(=O)(=O)c2[nH]nc3ccc(Cl)cc23)cc1
24: Cc1ccc2ccccc2c1COC(=O)c1nonc1N
30: CCc1ccc(OCC(=O)Nc2ccc3c(c2)COC3=O)cc1
16: Cc1cccc(NC(=O)C(NS(=O)(=O)c2cccs2)C(C)C)c1C (stereo unspecified)
32: CCCn1c(C)cc(C(=O)CSc2nc(O)cc(=O)n2C2CCCC2)c1C
25: COc1ccccc1C1C(C(=O)Nc2ccccc2F)=C(C)NC2=C1C(=O)CCC2 (stereo unspecified)
28: O=C(Cn1c(=O)oc2cc(S(=O)(=O)NCc3ccccc3)ccc21)Nc1ccc(F)cc1

assay / compound,17,29,21,19,24,30,16,32,25,28
MenB inh,3,-14,3,-19,-24,-21,-11,-62,-19,-6
PV pol inh,102,103,99,106,101,108,104,114,100,101
PV pol inh intensity,101,104,101,109,102,105,103,119,96,99
MbtI inh,8,0,6,.,-20,.,-1,8,-10,19

Further records:
33: CC1(C)CC2(CCO1)NNC(=S)NN2
34: O=S(=O)(c1ccc(F)cc1)N1C=CC(C(F)(F)F)=NCC1
35: O=C(Nc1ccc2c(c1)OCCO2)c1cccc(-n2cnnc2)c1
36: N#Cc1c(-c2ccccc2)nc2n(c1=O)CCCS2
37: Cc1ccc(C2CCN(C(=S)NCC3CCCO3)C2)cc1 (stereo unspecified)
38: COc1cccc(CN(Cc2ccco2)S(=O)(=O)c2ccccc2)c1
39: CCOC(=O)c1cc(-c2ccc(S(=O)(=O)N3CCCCC3C)s2)on1 (stereo unspecified)
40: CCOC(=O)C1=C(C)NC2=C(C(=O)CCC2)C1c1ccccc1 (stereo unspecified)

assay / compound,33,34,35,36,37,38,39,40
MenB inh,16,-9,-2,-14,-9,-26,12,3
PV pol inh,99,107,104,100,101,104,100,102
PV pol inh intensity,101,105,102,101,103,106,102,101
MbtI inh,0,-3,-4,-30,0,-4,1,4

41: CC1N(C)c2cc(NC(=O)c3ccco3)ccc2C1(C)C (stereo unspecified)
42: CN(CCO)C(=O)c1cc(-c2ccc(Cl)cc2)nc2ccccc12
43: O=C1C2C3C=CC(C3)C2C(=O)N1c1cccc(N2C(=O)C3C4C=CC(C4)C3C2=O)c1 (stereo unspecified)
44: CC1=C(C(=O)NCCC(C)C)C2(CCN(S(=O)(=O)c3cccs3)CC2)OC1=O
45: CCCCn1nnc2sc(-c3ccccc3)cc2c1=O
46: O=c1[nH]c(CSc2ccccn2)nc2ccsc12
47: CC(C)(C)c1cc(O)c(C(C)(C)C)cc1O
48: O=C1c2ccccc2S(=O)(=O)c2cc(C(=O)N3CCN(c4ccccc4)CC3)ccc21

assay / compound,41,42,43,44,45,46,47,48
MenB inh,.,.,-4,-18,5,-22,8,-5
PV pol inh,101,102,99,102,107,128,98&98,104
PV pol inh intensity,106,101,101,103,114,190,102&100,99
MbtI inh,-14,0,0,-10,58,96*,-3,-4

49: CC(C)CCN1NC(C)(C)NC1=S
50: O=C(CSc1nc2ccccc2c(=O)n1C1CCCC1)Nc1cccnc1Cl
51: OCCN(Cc1ccccc1)Cc1ccccc1O
52: O=C(OCC(=O)N1CCCc2ccccc21)c1ccccc1O
53: CC(C)(O)C(=O)/C=C/c1ccccc1
54: OC(Cc1cccnc1)(c1ccccc1)c1ccccc1
55: CN(C)CCCSc1nc2ccccc2s1
56: Cc1ccc(CN(Cc2ccco2)C(=S)NCC(=O)O)cc1

assay / compound,49,50,51,52,53,54,55,56
MenB inh,-28,-20,-14,-26,-7,-3,.,-51
PV pol inh,101,100,107,100,97,89*,99,101
PV pol inh intensity,100,104,99,106,101,92*,101,102
MbtI inh,.,4,-6,-8,.,-6,31,12

57: O=C(COc1ccccc1)n1nc(-c2ccccc2)nc1NCc1cccs1
58: COC(=O)C12CCCC(C(=O)O)(CCC1)C2
59: NC(Cc1ccccc1)c1nc2ccccc2[nH]1 (stereo unspecified)
60: CCc1cc2c(=O)c(-c3nc4ccccc4s3)c(C(F)(F)F)oc2cc1O
61: Cc1ccccc1N1CCN(C2=NC(=O)/C(=C\c3cccs3)S2)CC1
62: O=C(O)c1ccccc1Cc1nc2c(oc3ccccc32)c(=O)[nH]1
63: COc1cccc(/C=C2\CC/C(=C\c3cccc(OC)c3)C2=O)c1
64: COC1CCCCC1Nc1ccccc1 (stereo unspecified)

assay / compound,57,58,59,60,61,62,63,64
MenB inh,-29,.,.,-108,-13,-17,-20,-10
PV pol inh,101,102,100,103,.,104,99,98
PV pol inh intensity,103,104,106,108,.,105,100,100
MbtI inh,-12,-3,1,53,-8,-14,8,0

65: CC(C)(C)c1cc(Cl)cc(C(=O)c2ccccc2)c1
66: Cn1nc(-c2ccc(C(N)=O)cc2)c2ccccc2c1=O
67: O=C(CCSCc1cnn(-c2ccccc2)c1-n1cccc1)NC1CCCC1
68: c1ccc(OCCn2c(CN3CCCCC3)nc3ccccc32)cc1
69: Cc1cc(C)n(CCOc2ccc(Br)cc2)n1
70: O=C(OCC(=O)N1CCCCC1)c1ccccc1OCc1ccc(F)cc1
71: COC(CNC(=O)c1ccc(N2CCCC2=O)cc1)OC
72: O=C1COc2ccc(C(=O)COC(=O)c3cccs3)cc2N1

assay / compound,65,66,67,68,69,70,71,72
MenB inh,-18,11,-20,-6,-5,.,-4,-10
PV pol inh,104,102,106,102,98,104,101,95
PV pol inh intensity,105,107,111,102,102,109,101,99
MbtI inh,.,-1,-11,10,-13,-8,1,2

73: COC(=O)CSc1nnc(CNc2ccc(Cl)cc2)n1Cc1ccccc1
74: Cc1ccc(C(=O)Nc2cnc3ccccn3c2=O)cc1
75: CCN1CCN(C(=O)COc2cccc(Br)c2)CC1
76: CCOC(=O)N1CCN(C(=O)COC(=O)c2cccc(S(C)(=O)=O)c2)CC1
77: COC(=O)c1cc(Nc2ncnc3c2nc2n3CCCCC2)cc(C(=O)OC)c1
78: CCN(C(=O)c1c(N)cnn1C)c1ccccc1
79: O=C(Nc1ccc2nc(N3CCOCC3)sc2c1)c1cncn1-c1ccccc1
80: O=C(NCN1C(=O)C2C3C=CC(C3)C2C1=O)Nc1cccnc1 (stereo unspecified)

assay / compound,73,74,75,76,77,78,79,80
MenB inh,-4,0,.,-7,5,-16,-27,7
PV pol inh,102,107&99,102,105,99,103,104,100
PV pol inh intensity,101,105&104,96,97,101,103,96,108
MbtI inh,-5,4,-15,-7,-4,3,-3,-6

81: COc1ccc2nc(C)cc(SCC(=O)c3ccc(Cl)cc3)c2c1
82: O=C(Cc1ccc(S(=O)(=O)N2CCCC2)s1)N1CCN(Cc2ccccc2)CC1
83: O=C(CO)n1c2ccccc2c2ccccc21
84: CS(=O)(=O)c1ccc(-c2csc(-c3cccs3)n2)cc1
85: OCn1nc(-c2ccc(Cl)cc2Cl)oc1=S
86: COc1ccc(-c2noc(COC(=O)/C(=C/c3ccccc3OC)c3ccccc3)n2)c(OC)c1
87: S=c1nc(-c2cccc(Br)c2)[nH][nH]1
88: CCOC(=O)c1ccc(NC(=O)CCC(=O)N2CC(C)Oc3ccc(C)cc32)cc1 (stereo unspecified)

assay / compound,81,82,83,84,85,86,87,88
MenB inh,9,8,-20,-7,-39,-40,15,18
PV pol inh,103,103,101,95,102,109,90,101
PV pol inh intensity,101,98,102,100,107,108,85,101
MbtI inh,.,6,-137,19,.,-1,.,-4

Quoted at random: 3 compounds from above.
88: CCOC(=O)c1ccc(NC(=O)CCC(=O)N2CC(C)Oc3ccc(C)cc32)cc1 (stereo unspecified)
27: Cc1cc(NC(=O)c2cccnc2)ccc1NC(=O)c1ccco1
40: CCOC(=O)C1=C(C)NC2=C(C(=O)CCC2)C1c1ccccc1 (stereo unspecified)

assay / compound,88,27,40
MenB inh,18,-44,3
PV pol inh,101,103,102
PV pol inh intensity,101,99,101
MbtI inh,-4,-4,4

Following part:
89: O=C(O)COCC(=O)N1CC(=O)Nc2ccccc21
90: CC(=O)N(c1ccccc1)c1nc(COC(=O)C2CCC2)cs1
91: O=C(CSc1cc(Cl)ccc1Cl)OCC(=O)c1ccccc1
92: NNC(=S)Nc1ccc2c(c1)OCO2
93: O=C1/C(=C/c2ccc3ccccc3c2)COc2ccccc21
94: Cc1cc(OC(=O)c2cccs2)cc(OC(=O)c2cccs2)c1
95: O=C(O)CCC(=O)Nc1ccccc1C#Cc1ccc(Br)cc1
96: O=C(CSC1=Nc2ccccc2CS1)c1ccc[nH]1
97: O=C(O)CCCCCN1C(=O)C2C3C=CC(C3)C2C1=O (stereo unspecified)
98: COc1ccc(S(=O)(=O)N2CCN(C(=O)c3ccco3)CC2)cc1OC
99: COc1cc(OC)cc(C(=O)Nc2cccc(-c3nc4cc(C)cc(C)c4o3)c2C)c1

assay / compound,89,90,91,92,93,94,95,96,97,98,99
MenB inh,-27,-25,.,-27,-27,-2,12,-49,-3,-7,-8
PV pol inh,102,103,99,102,99,103,104,148,101,102,100
PV pol inh intensity,102,110,106,102,101,103,99,157,107,99,101
MbtI inh,-10,-11,2,16,1,-3,.,-1,-8,11,-10
